Screens: PubChem, Southern Research Institute
total CFTR: total CFTR protein upregulators, primary screen, cell-based, HeLa F508del-CFTR, immunofluorescence, viability (AID 1224863) | Cystic fibrosis transmembrane conductance regulator (Homo sapiens) | HeLa F508del-CFTR, immunofluorescence total CFTR, 24 h; by the record results were divided by relative cell number; some inactives read as strong as hits | calls, or highest fold increase where a dose series was run | hit rate 0.1% among 10,000; in the data nearly all actives have a first-pass fold increase above 1.5; a few of its hits are not listed in these tables;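 note: total CFTR protein by anti-CFTR immunofluorescence in fixed cells; first pass at 25 µM or 10 µg/mL by library and series up to twice that; 1 = untreated cells; first-pass hits also needed half or more of the cells alive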
total CFTR fold 25 µM: recorded beside total CFTR, whose call it bears; fold increase; measured here: primary screen single dose 25 uM; library dosed in µM
total CFTR fold 10 ug/mL: second read-out of total CFTR, no call of its own (marks repeat the call); fold increase; measured here: primary screen 10 ug/mL
total CFTR viability 25 µM: recorded beside total CFTR, whose call it bears; viability, %; measured here: primary viability 25 uM; library dosed in µM;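 0% = killed and 100% = untreated cells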
total CFTR viability 10 ug/mL: recorded beside total CFTR, whose call it bears; viability, %; measured here: primary viability 10 ug/mL;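 0% = killed and 100% = untreated cells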
Active calls of the source: *; i = inactive; . = not tested or not shown; & = joins results of further samples.

A first look (five entries):
SMILES | total CFTR | total CFTR fold 10 ug/mL | total CFTR viability 10 ug/mL | others
COC(=O)CCSc1nnc(-c2cc(OC)c(OC)c(OC)c2)o1 | i | 1 | 104
Cc1cc(NCC2CCN(c3ccccc3)C2)nc(-c2cccc([N+](=O)[O-])c2)n1 (stereo not drawn) | i | 0.94 | 86
Cc1nc2c(c(C)nn2C)c(C)c1CC(=O)O | i | 0.99 | 90
COc1ccc(C(CNc2ccc3nnnn3n2)N2CCOCC2)cc1OC (stereo not drawn) | i | 1 | 92
CN1CCC(CNC(=O)C23CC4CC(CC(Cl)(C4)C2)C3)c2ccccc21 (stereo not drawn) | i | 1.1 | 77

Results, previewed entries included:
SMILES | total CFTR | total CFTR fold 10 ug/mL | total CFTR viability 10 ug/mL | others
COC(=O)CCSc1nnc(-c2cc(OC)c(OC)c(OC)c2)o1 | i | 1 | 104
Cc1cc(NCC2CCN(c3ccccc3)C2)nc(-c2cccc([N+](=O)[O-])c2)n1 (stereo not drawn) | i | 0.94 | 86
Cc1nc2c(c(C)nn2C)c(C)c1CC(=O)O | i | 0.99 | 90
COc1ccc(C(CNc2ccc3nnnn3n2)N2CCOCC2)cc1OC (stereo not drawn) | i | 1 | 92
CN1CCC(CNC(=O)C23CC4CC(CC(Cl)(C4)C2)C3)c2ccccc21 (stereo not drawn) | i | 1.1 | 77
O=C(c1ccc2c(c1)CCO2)N1CCN(S(=O)(=O)N2CCCCCC2)CC1 | i | 1.1 | 104
CN(c1ccccc1)c1ccc(CN)cc1F | i | 0.88 | 68
CCCCOc1cc(C(=O)NCCN(CC)CC)c2ccccc2n1 | i | . | . | total CFTR fold 25 µM=1.3;total CFTR viability 25 µM=89
CC(C)(C)C(=O)COc1ccc(F)cc1Cl | i | 0.92 | 108
O=c1c(Cl)c(Oc2ccc(Br)cc2Cl)cnn1-c1ccccc1 | i | 1.2 | 88
CO[C@H]1CC(O[C@@H]2/C(C)=C/C[C@@H]3C[C@@H](C[C@]4(CC[C@H](C)[C@@H](C5CCCCC5)O4)O3)OC(=O)[C@@H]3C=C(C)/C(=N/O)[C@H]4OC/C(=C\C=C\[C@@H]2C)[C@]43O)O[C@@H](C)C1O (stereo partly drawn) | i | . | . | total CFTR fold 25 µM=0.67;total CFTR viability 25 µM=4
Cc1ccc(C)c(-n2nnnc2SCc2cn3ccccc3n2)c1 | i | 0.86 | 97
O=c1c2ccccc2nnn1CCOc1ccc(F)cc1 | i | 0.89 | 92
Cc1cc2nc3c(=O)[nH]c(=O)nc-3n(CC(O)C(O)C(O)CO)c2cc1C (stereo not drawn) | i | . | . | total CFTR fold 25 µM=1;total CFTR viability 25 µM=89
FC(F)(F)c1nc(N2CCN(c3nnnn3-c3ccccc3)CC2)c2ccccc2n1 | i | 1 | 103
CNc1nc(CN2CCOCC2)nc2sc3c(c12)CCC(C)C3 (stereo not drawn) | i | 0.93 | 88
O=S(=O)(NC1CCN(C2CC2)CC1)c1ccc(Cl)cc1F | i | 1.1 | 107
CN1C(=O)CC[C@H]1c1cccnc1 | i | . | . | total CFTR fold 25 µM=1.1;total CFTR viability 25 µM=97
Cc1cc(-n2c(C)cc(C(=O)NCC(=O)NC(C)C)c2C)no1 | i | 1.3 | 83
C=CCOc1ccc(S(=O)(=O)N2CCOCC2)cc1[N+](=O)[O-] | i | 1 | 96
CC(C)OCCCNC(=O)Nc1ccc(I)cc1 | i | 0.98 | 98
Cc1cn2nc(NC3CCCC3)sc2n1 | i | 0.88 | 96
CC(=O)Nc1ccc(OC(=O)c2ccccc2O)cc1 | i | . | . | total CFTR fold 25 µM=1;total CFTR viability 25 µM=89
CC(=O)NO | i | . | . | total CFTR fold 25 µM=1.1;total CFTR viability 25 µM=90
CC1CCC2(CC1)NC(=O)N(CC(=O)NC1CCCCC1)C2=O (stereo not drawn) | i | 1.1 | 101
CNc1nc(SCCS(=O)c2ccccc2)nc2ccccc12 (stereo not drawn) | i | 0.95 | 86
CCc1nc(C)c2c(C)c(C(=O)NC3CCS(=O)(=O)C3)sc2n1 (stereo not drawn) | i | 1 | 91
COCCn1c(C)cc(C(=O)Cn2cnc3ccsc3c2=O)c1C | i | 1.1 | 106
Cc1c(Cl)cccc1Nc1ccccc1C(=O)O | i | . | . | total CFTR fold 25 µM=0.8&1.1;total CFTR viability 25 µM=85&89
Cn1cnn(CN2CCN(Cc3csc(-c4ccsc4)n3)CC2)c1=S | i | 1.1 | 99
O=C(OCn1nnc2ccccc2c1=O)c1csc2c1CCCC2 | i | 1.1 | 101
CC(NCc1cccc2cccnc12)c1ccc(-n2ccnc2)cc1 (stereo not drawn) | i | 1.1 | 95
N#Cc1cc([N+](=O)[O-])ccc1NCC(C1CCOC1)N1CCOCC1 (stereo not drawn) | i | 0.96 | 95
CCN(Cc1ccccc1)S(=O)(=O)C1=Cc2ccccc2CC1 | i | 0.96 | 92
COc1ccc(Br)cc1S(=O)(=O)N1CCC(N2CC(C)OC(C)C2)CC1 (stereo not drawn) | i | 1 | 99
CCN(CC)S(=O)(=O)NCC(c1ccccc1)C(C)C (stereo not drawn) | i | 1.1 | 93
O=C1NC2(CCCc3ccccc32)C(=O)N1CN1CCN(c2ccccc2)CC1 (stereo not drawn) | i | 0.92 | 91
COc1ccc(S(=O)(=O)N2CCN(S(=O)(=O)N3CCOCC3)CC2)cc1OC | i | 1 | 88
Cn1cc(C(=O)N2CCN(C(=O)c3ccoc3)CC2)cn1 | i | 0.99 | 88
O=C(Nc1nc(-c2ccc(Cl)s2)cs1)C1CCN(C(=O)C2CC2)CC1 | i | 0.83 | 82
CC(C)C[C@H]1C(=O)N2CCC[C@H]2[C@]2(O)O[C@](NC(=O)[C@@H]3C=C4c5cccc6[nH]c(Br)c(c56)CC4N(C)C3)(C(C)C)C(=O)N12 (stereo partly drawn) | i | . | . | total CFTR fold 25 µM=0.86;total CFTR viability 25 µM=78
O=S(=O)(Nc1ccc(F)c(Cl)c1)c1ccc(F)c(F)c1 | i | 1.1 | 87
CN(Cc1nnc(-c2ccccc2)o1)C1CCCc2ccccc21 (stereo not drawn) | i | 0.76 | 85
Cc1nc(NC(=O)C2(C)CC2(Cl)Cl)sc1-c1nccn1C(F)F (stereo not drawn) | i | 0.96 | 85
C[N+]1(C)[C@@H]2CC(OC(=O)C(O)(c3cccs3)c3cccs3)C[C@H]1[C@@H]1O[C@@H]12 (stereo partly drawn) | i | . | . | total CFTR fold 25 µM=1.1&1&1.1;total CFTR viability 25 µM=103&106&95

Six successive compounds out of the list so far:
SMILES | total CFTR | total CFTR fold 10 ug/mL | total CFTR viability 10 ug/mL | others
O=C(OCn1nnc2ccccc2c1=O)c1csc2c1CCCC2 | i | 1.1 | 101
CC(NCc1cccc2cccnc12)c1ccc(-n2ccnc2)cc1 (stereo not drawn) | i | 1.1 | 95
N#Cc1cc([N+](=O)[O-])ccc1NCC(C1CCOC1)N1CCOCC1 (stereo not drawn) | i | 0.96 | 95
CCN(Cc1ccccc1)S(=O)(=O)C1=Cc2ccccc2CC1 | i | 0.96 | 92
COc1ccc(Br)cc1S(=O)(=O)N1CCC(N2CC(C)OC(C)C2)CC1 (stereo not drawn) | i | 1 | 99
CCN(CC)S(=O)(=O)NCC(c1ccccc1)C(C)C (stereo not drawn) | i | 1.1 | 93

(cont.)
SMILES | total CFTR | total CFTR fold 10 ug/mL | total CFTR viability 10 ug/mL | others
COc1ccc(-c2oc(-c3ccccc3)cc2-c2nc3ccccc3[nH]2)cc1 | i | 1.1 | 92
COc1cc(OC)c(C(=O)CCCN2CCCC2)c(OC)c1 | i | . | . | total CFTR fold 25 µM=1;total CFTR viability 25 µM=87
CC1(C)CC(NCc2ccc(Cl)c(Cl)c2)CC(C)(C)N1 | i | 1.1 | 103
Cc1ccc(S(=O)(=O)N2CCC(C(O)(c3ccccc3)c3ccccc3)CC2)cc1 | i | 1 | 98
CCCCc1noc(CS(=O)(=O)Cc2cccc3ccccc23)n1 | i | 0.95 | 87
CN(CC(=O)Nc1sc2c(c1C(N)=O)CCCC2)Cc1cnn(C)c1 | i | 0.96 | 79
COC(=O)c1c(C)[nH]c(C(=O)OCc2cc(-c3ccco3)on2)c1C | i | 0.93 | 74
O=C(NCc1csc(Br)c1)c1coc(Br)c1 | i | 0.75 | 64
CC(C(=O)O)S(=O)(=O)Cc1ccc(Br)cc1 (stereo not drawn) | i | 1.1 | 90
Cc1nc(-c2cc(C)n(CC(=O)Nc3nc(C)c(-c4nccn4C(F)F)s3)c2C)cs1 | i | 1.1 | 96
CCN(Cn1nc(-c2cccs2)n(C2CC2)c1=S)CC(F)(F)F | i | 0.98 | 92
CC1(C)S[C@@H]2[C@H](NC(=O)[C@H](C(=O)O)c3cccs3)C(=O)N2[C@H]1C(=O)O | i | . | . | total CFTR fold 25 µM=1;total CFTR viability 25 µM=90
CC(N)C12CC3CC(CC(C3)C1)C2 (stereo not drawn) | i | 1.1 | 90 | total CFTR fold 25 µM=1.1&1.1;total CFTR viability 25 µM=84&91
O=C(NC1CCS(=O)(=O)C1)C1CC(=O)N(c2ccc3c(c2)OCCO3)C1 (stereo not drawn) | i | 0.98 | 90
O=S(=O)(c1ccc2c(c1)OCCCO2)N1CCCC1c1ccncc1 (stereo not drawn) | i | 0.88 | 98
CCOC(=O)C1=C(COC(=O)c2cn3ccccc3n2)NC(=O)NC1CC (stereo not drawn) | i | 0.91 | 92
NS(=O)(=O)c1ccc(S(=O)(=O)N(Cc2ccc(F)cc2)C2CC2)cc1 | i | 1 | 92
Cc1[nH]c2ccccc2c1C(=O)C(C)Sc1nccc(C(F)(F)F)n1 (stereo not drawn) | i | 0.83 | 74
Cc1cc(C(=O)CSc2nnc(NC3CCCCC3)s2)c(C)n1CC(F)(F)F | i | 1.1 | 82
O=C1Nc2cc(N3CCOCC3)ccc2C1=O | i | 1.1 | 104
O=[N+]([O-])c1cnc(Oc2ccc3ccccc3c2Br)nc1NC1CC1 | i | 0.92 | 86
CC(NC(N)=O)C(=O)NCCC12CC3CC(CC(C3)C1)C2 (stereo not drawn) | i | 1 | 79
CNC(=O)NC(=O)CN1CCCC1C(=O)N(C)C (stereo not drawn) | i | 0.91 | 92
CCn1c(=O)c2ccccc2n2c(COc3ccc(I)cc3)nnc12 | i | 1 | 103
C#CCNC(=O)Cn1nc(C)cc1C | i | 1 | 75
COc1ccc(-c2noc(COc3ccc4ccc(=O)oc4c3)n2)cc1OC | i | 1.1 | 109
Cc1c(O)cccc1C(=O)N[C@@H](CSc1ccccc1)[C@H](O)CN1C[C@H]2CCCC[C@H]2C[C@H]1C(=O)NC(C)(C)C | i | . | . | total CFTR fold 25 µM=0.79;total CFTR viability 25 µM=64
CCCCN(C(=O)Cn1c(=O)c(C#N)cn(CC)c1=O)C(C)CC (stereo not drawn) | i | 0.98 | 96
CC(C)COCCN | i | 0.87 | 83
O=C(NCC(F)(F)F)c1cnccn1 | i | 1 | 109
N#CCn1cnc2sccc2c1=O | i | 0.99 | 94
C=C(Cl)CN1C(=O)c2ccccc2S1(=O)=O | i | 1 | 86
Cc1cc(Oc2ncnc3sc4c(c23)CCC4)c(C(C)C)cc1Cl | i | 1 | 101
S=c1nc(-c2ccco2)[nH][nH]1 | i | 0.92 | 88
Cc1ccsc1C(=O)CC#N | i | 1.3 | 87
Cc1c(CSc2nnc(-c3ccc4c(c3)OCO4)o2)cccc1[N+](=O)[O-] | i | 0.93 | 94
Cc1nc(CN2CCN(Cn3ncc(Cl)c(Cl)c3=O)CC2)cs1 | i | 1.1 | 97
COC(=O)c1ccoc1COC(=O)c1cc2c(s1)CCCC2 | i | 0.87 | 90
CC(NCCc1ccc(O)cc1)C(O)c1ccc(O)cc1 (stereo not drawn) | i | . | . | total CFTR fold 25 µM=1;total CFTR viability 25 µM=90
Cc1cc(CN2C(=O)NC(C)(c3cc4ccccc4o3)C2=O)no1 (stereo not drawn) | i | 0.94 | 97
CO/N=C(/C(=O)NC1C(=O)N2C(C(=O)O)=C(C[N+]3(C)CCCC3)CSC12)c1csc(N)n1 (stereo not drawn) | i | . | . | total CFTR fold 25 µM=0.9;total CFTR viability 25 µM=90
CC(C)CN1CCOC(CNC(=O)CC2CC3CCC2C3)C1 (stereo not drawn) | i | 1.1 | 93
O=C(CN1C(=O)NC2(CCCCC2)C1=O)NC(=O)NCc1ccco1 | i | 0.92 | 106
O=C1Nc2cc(Cl)ccc2/C1=C/c1cc([N+](=O)[O-])cc2c1OCOC2 | i | 1 | 89
O=C1C2CCCC1CC(C(=O)N1CCc3ccccc31)C2 (stereo not drawn) | i | 1.1 | 95
CCOC(=O)c1ncn2c1CN(C)C(=O)c1cc(F)ccc1-2 | i | . | . | total CFTR fold 25 µM=1.1&1.1&0.98;total CFTR viability 25 µM=91&89&104

Not all compounds are listed; count on the stated rates, not on these rows.
